Yeast UUG start: yeast start codon fidelity modulation. activity score, % at 18.7 µM. S. cerevisiae UUG-firefly luciferase reporter, luminescence/redox ratio. actives 0.13% (n = 350,000);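 active = replicate mean at a twofold rise or more, about +100% in these data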;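 also: firefly luciferase made from a UUG start codon reports start codon fidelity; reporter light over untreated wells divided by growth signal over untreated wells; some hits fall short of that in this replicate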
HIV Env fusion: inhibitors of HIV Env-mediated cell fusion | AID 651610 | HeLa-JRFL Env/CEM21 cell fusion, luciferase | actives 1.1% (n = 360,000) | inhibition, % at 12.3 µM;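 active = mean replicate inhibition score of at least 50 and every replicate individually at or above 50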;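 also: 0% = plate neutral controls and 100% = maraviroc near 300 nM; one replicate is shown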
* marks the source's active call; other numbers are inactive results; [ ] = dose if it differs, or a comment. This is a subset, so the mix of outcomes need not match the whole.

Each structure is followed by: Yeast UUG start | HIV Env fusion
> C[C@H]1CN([C@@H](C)CO)C(=O)c2cc(C3=CCCC3)cnc2O[C@@H]1CN(C)C(=O)C1CCC1
 : 0.3 | -16.2[16.7 µM]
> Cn1cnc(S(=O)(=O)N2C[C@H](O)COC[C@H]3O[C@@H](CC(=O)N4CCN(c5ccccc5)CC4)CC[C@@H]32)c1
 : 0.5 | 1.7[16.7 µM]
> C[C@H](O)C#Cc1cnc2c(c1)C(=O)N([C@@H](C)CO)C[C@H](C)[C@H](CN(C)C(=O)Nc1ccc(F)cc1)O2
 : 2.6 | -17.2[16.7 µM]
> COc1cccc(S(=O)(=O)N[C@@H]2C=C[C@@H](CC(=O)NCc3ccc(Cl)cc3)O[C@@H]2CO)c1
 : -21.5 | 2.2[16.7 µM]
> COCC#Cc1ccc2c(c1)O[C@H](CN(C)C(=O)C1CC1)[C@H](C)CN([C@H](C)CO)S2(=O)=O
 : -0.2 | -4.3[16.7 µM]
> Cc1noc(C)c1NC(=O)N(C)C[C@@H]1Oc2ccc(NC(=O)Nc3cccc4ccccc34)cc2C(=O)N([C@@H](C)CO)C[C@H]1C
 : -8.5 | -5.2[16.7 µM]
> C[C@@H]1CN([C@@H](C)CO)C(=O)c2cccc(NC(=O)C3CCOCC3)c2O[C@@H]1CN(C)Cc1ccccc1
 : 2.5 | 40.8[16.7 µM]
> CC(C)NC(=O)N(C)C[C@@H]1Oc2c(NC(=O)Nc3cccc4ccccc34)cccc2C(=O)N([C@@H](C)CO)C[C@H]1C
 : 5.4 | 4.9[16.7 µM]
> CCCC#Cc1ccc2c(c1)O[C@H](CN(C)CCC)[C@H](C)CN([C@H](C)CO)S2(=O)=O
 : 17.3 | 1.0[16.7 µM]
> C[C@H]1CN([C@@H](C)CO)S(=O)(=O)c2ccc(C#CC3CCCC3)cc2O[C@H]1CN(C)C(=O)Cc1ccccc1
 : -8.5 | 3.5[16.7 µM]
> C[C@H]1CN([C@@H](C)CO)C(=O)Cc2cc(NC(=O)CCN3CCOCC3)ccc2O[C@@H]1CN(C)C(=O)Nc1ccc(C(F)(F)F)cc1
 : 4.7 | 2.2[16.7 µM]
> C[C@@H]1CCCCO[C@H](CN(C)C(=O)NC2CCCCC2)[C@@H](C)CN([C@@H](C)CO)C(=O)c2cc(NS(C)(=O)=O)ccc2O1
 : 0.5 | 2.7[16.7 µM]
> C[C@@H]1CN([C@H](C)CO)C(=O)c2cc(NS(=O)(=O)c3cccs3)ccc2O[C@@H](C)CCCCO[C@H]1CN(C)Cc1ccc(Cl)c(Cl)c1
 : 61.5 | 40.1[16.7 µM]
> Cc1noc(C)c1NC(=O)N(C)C[C@H]1Oc2ccc(NS(=O)(=O)c3ccccc3)cc2CC(=O)N([C@@H](C)CO)C[C@H]1C
 : 0.3 | 11.9[16.7 µM]
> C[C@H](CO)N1C[C@H](C)[C@H](CN(C)C(=O)Nc2ccc3c(c2)OCO3)Oc2ccc(NC(=O)Cn3cnnn3)cc2CC1=O
 : -4.9 | 0.1[16.7 µM]
> Cc1noc(C)c1NC(=O)Nc1ccc2c(c1)C(=O)N([C@H](C)CO)C[C@H](C)[C@@H](CN(C)Cc1ccc(C(F)(F)F)cc1)OCCCC[C@H](C)O2
 : 7.6 | 18.0[16.7 µM]
> C[C@H](CO)N1C[C@H](C)[C@H](CN(C)C(=O)C2CCCCC2)OCCCC[C@H](C)Oc2ccc(NC(=O)Nc3ccc(F)cc3)cc2C1=O
 : 5.0 | 11.0[16.7 µM]
> CC(C)C(=O)Nc1ccc2c(c1)C(=O)N(C)[C@H]1CC[C@H](CC(=O)N[C@@H](C)c3ccccc3)O[C@H]1CO2
 : 12.4 | 18.8[16.7 µM]
> COC(=O)C[C@@H]1CC[C@H]2[C@@H](COc3ccc(NC(=O)c4ccccc4)cc3C(=O)N2C)O1
 : -8.2 | 6.7[16.7 µM]
> C[C@@H]1CN([C@H](C)CO)C(=O)c2cc(C3=CCCC3)cnc2O[C@H]1CN(C)C(=O)c1ccccc1
 : 10.8 | 6.7[16.7 µM]

3 entries from above, set out differently:
| Yeast UUG start | HIV Env fusion | smiles |
| --- | --- | --- |
| 12.4 | 18.8[16.7 µM] | CC(C)C(=O)Nc1ccc2c(c1)C(=O)N(C)[C@H]1CC[C@H](CC(=O)N[C@@H](C)c3ccccc3)O[C@H]1CO2 |
| 2.6 | -17.2[16.7 µM] | C[C@H](O)C#Cc1cnc2c(c1)C(=O)N([C@@H](C)CO)C[C@H](C)[C@H](CN(C)C(=O)Nc1ccc(F)cc1)O2 |
| 17.3 | 1.0[16.7 µM] | CCCC#Cc1ccc2c(c1)O[C@H](CN(C)CCC)[C@H](C)CN([C@H](C)CO)S2(=O)=O |

Going on with the list.
Each structure is followed by: Yeast UUG start | HIV Env fusion
> CC(C)C(=O)Nc1ccc2c(c1)C(=O)N(C)[C@@H]1CC[C@H](CC(=O)NCc3ccc(F)cc3)O[C@H]1CO2
 : -1.0 | -23.5[16.7 µM]
> O=C(C[C@H]1C=C[C@@H](NC(=O)c2ccncc2)[C@@H](CO)O1)NCCc1ccncc1
 : 4.7 | 4.0[16.7 µM]
> C[C@H]1CN([C@@H](C)CO)S(=O)(=O)c2ccc(C#Cc3ccc(F)cc3)cc2O[C@@H]1CN(C)S(C)(=O)=O
 : 10.2 | 15.1[16.7 µM]
> CC(C)C#Cc1ccc([C@@H]2[C@H](C#N)N(C(=O)C3CCC3)[C@H]2CO)cc1
 : -2.2 | -20.1[16.7 µM]
> C[C@@H]1CCCCO[C@H](CN(C)Cc2ccncc2)[C@H](C)CN([C@@H](C)CO)C(=O)c2cc(NC(=O)C3CCCCC3)ccc2O1
 : 5.3 | -68.3[16.7 µM]
> C[C@H]1CN([C@@H](C)CO)S(=O)(=O)c2ccc(C#Cc3ccccn3)cc2O[C@@H]1CN(C)Cc1ccccc1
 : 5.4 | 8.0[16.7 µM]
> C[C@H]1CN([C@@H](C)CO)S(=O)(=O)c2ccc(-c3ccc(C(=O)N(C)C)cc3)cc2O[C@@H]1CN(C)Cc1ccccc1C(=O)O
 : 0.3 | -27.7[16.7 µM]
> Cc1ccc(-c2ccc3c(c2)O[C@H](CN(C)S(C)(=O)=O)[C@@H](C)CN([C@@H](C)CO)S3(=O)=O)cc1
 : 0.0 | 5.1[16.7 µM]
> Cc1ccc(S(=O)(=O)N(C)C[C@@H]2OCCCC[C@@H](C)Oc3ccc(NC(=O)Cc4ccccc4)cc3C(=O)N([C@@H](C)CO)C[C@@H]2C)cc1
 : -3.4 | 0.3[16.7 µM]
> C[C@H](CO)N1C[C@H](C)[C@@H](CN(C)C(=O)C2CCOCC2)Oc2ncc(/C=C/c3ccccc3)cc2C1=O
 : 3.0 | 8.0[16.7 µM]
> COc1ccccc1S(=O)(=O)N(C)C[C@H]1OCc2cn(nn2)CCCC(=O)N([C@@H](C)CO)C[C@H]1C
 : -6.2 | -4.5[16.7 µM]
> COc1ccc(NC(=O)N[C@@H]2CC[C@H](CC(=O)NCc3ccccn3)O[C@@H]2CO)cc1
 : -7.3 | 19.7[16.7 µM]
> C[C@H](CO)N1C[C@H](C)[C@@H](CN(C)C(=O)NC2CCCCC2)Oc2c(NC(=O)c3cnccn3)cccc2C1=O
 : 0.4 | -5.2[16.7 µM]
> C[C@@H]1CN([C@@H](C)CO)S(=O)(=O)c2ccc(/C=C/c3ccccc3)cc2O[C@H]1CN(C)C(=O)c1ccncc1
 : -9.5 | 7.1[16.7 µM]
> CN(C)CCCN1C(=O)[C@@]2(Cc3ccccc31)c1ccccc1C(=O)N(Cc1ccccc1Cl)[C@H]2c1ccc(CO)cc1
 : 201.6* | -3.0[16.7 µM]
> COc1ccc(CN(C)C[C@@H]2OCCCC[C@H](C)Oc3ccc(NC(=O)c4ccncc4)cc3C(=O)N([C@H](C)CO)C[C@H]2C)cc1
 : 7.5 | 27.9[16.7 µM]
> C[C@@H]1CCCCO[C@@H](CN(C)C(=O)C2CCCCC2)[C@@H](C)CN([C@@H](C)CO)C(=O)c2cc(NC(=O)Nc3ccccc3)ccc2O1
 : 10.1 | -6.9[16.7 µM]
> CCS(=O)(=O)NCC[C@H]1CC[C@H](NS(=O)(=O)c2cccc(Cl)c2)[C@H](CO)O1
 : -13.0 | -2.9[16.7 µM]
> Cc1noc(C)c1NC(=O)Nc1ccc2c(c1)C(=O)N([C@@H](C)CO)C[C@@H](C)[C@H](CN(C)C(=O)Nc1ccccc1)OCCCC[C@@H](C)O2
 : 11.4 | 3.3[16.7 µM]
> COCC(=O)N(C)C[C@@H]1Oc2cc(C#Cc3ccccc3)ccc2S(=O)(=O)N([C@H](C)CO)C[C@H]1C
 : 6.6 | 31.8[16.7 µM]

(cont.)
mol | Yeast UUG start | HIV Env fusion
O=C(C[C@@H]1C[C@H]2c3cc(NC(=O)Nc4ccc(F)cc4)ccc3O[C@H]2[C@@H](CO)O1)NC1CCCCC1 | -19.2 | -1.3[16.7 µM]
CCc1csc(N2[C@H](CO)[C@@H](c3ccc(-c4cccc(F)c4)cc3)[C@@H]2C#N)n1 | -23.2 | 2.1[16.7 µM]
CNC(=O)C[C@@H]1CC[C@H]2[C@@H](COc3ccc(NC(=O)Nc4ccccc4)cc3C(=O)N2C)O1 | 0.1 | 18.3[16.7 µM]
CCCN(C)C[C@@H]1OCCCC[C@H](C)Oc2ccc(NC(=O)Nc3ccc(F)cc3)cc2C(=O)N([C@H](C)CO)C[C@@H]1C | 8.0 | 12.8[16.7 µM]
CO[C@@H]1CN(C)C(=O)c2ccc(NC(=O)c3cc(C)on3)cc2OC[C@H](C)N(C(C)=O)C[C@@H]1C | 0.6 | 5.1[16.7 µM]
COc1ccc(NC(=O)Nc2ccc3c(c2)CC(=O)N([C@H](C)CO)C[C@@H](C)[C@H](CN(C)Cc2ccc4c(c2)OCO4)O3)cc1 | 24.3 | -7.8[16.7 µM]
Cc1ccc(S(=O)(=O)N(C)C[C@@H]2Oc3ccc(NS(=O)(=O)c4c(C)noc4C)cc3C(=O)N([C@@H](C)CO)C[C@H]2C)cc1 | 6.7 | -2.5[16.7 µM]
Cc1noc(C)c1S(=O)(=O)Nc1ccc2c(c1)C(=O)N([C@@H](C)CO)C[C@@H](C)[C@@H](CN(C)S(=O)(=O)c1ccccc1)OCCCC[C@@H](C)O2 | -2.3 | -34.8[16.7 µM]
CC(=O)N(C)C[C@@H]1Oc2ncc(-c3ccccc3C)cc2C(=O)N([C@@H](C)CO)C[C@H]1C | -7.7 | 7.3[16.7 µM]
C[C@@H]1CN([C@@H](C)CO)S(=O)(=O)c2ccc(C#CC(C)(C)O)cc2O[C@@H]1CN(C)C(=O)CC1CC1 | -1.2 | 3.3[16.7 µM]
COc1ccc(C#Cc2cnc3c(c2)C(=O)N([C@@H](C)CO)C[C@H](C)[C@@H](CN(C)C(=O)Nc2cccc(OC)c2)O3)cc1 | -2.4 | 29.0[16.7 µM]
C[C@@H]1CCCCO[C@H](CN(C)C(=O)Nc2ccc(F)cc2)[C@@H](C)CN([C@@H](C)CO)C(=O)c2cc(NC(=O)C3CCCCC3)ccc2O1 | 0.1 | -57.8[16.7 µM]
C[C@@H]1CN([C@@H](C)CO)C(=O)Cc2cc(NS(=O)(=O)c3ccc(F)cc3)ccc2O[C@@H]1CN(C)S(C)(=O)=O | -13.6 | -15.0[16.7 µM]
COc1ccccc1NC(=O)N(C)C[C@H]1Oc2ncc(Br)cc2C(=O)N([C@@H](C)CO)C[C@@H]1C | 4.3 | -18.9[16.7 µM]
Cc1noc(C)c1S(=O)(=O)N(C)C[C@H]1OCCCC[C@H](C)Oc2ccc(NS(=O)(=O)c3cccs3)cc2C(=O)N([C@@H](C)CO)C[C@@H]1C | -8.2 | -10.3[16.7 µM]
O=C(C[C@@H]1C=C[C@H](NC(=O)c2ccc3c(c2)OCO3)[C@@H](CO)O1)NCc1ccc(F)cc1 | -16.5 | 5.7[16.7 µM]
C[C@@H]1CN([C@@H](C)CO)C(=O)Cc2cc(NC(=O)Nc3cccc4ccccc34)ccc2O[C@H]1CN(C)S(=O)(=O)c1cccs1 | -6.5 | 16.3[16.7 µM]
COc1cccc(-c2ccc3c(c2)O[C@@H](CN(C)C)[C@@H](C)CN([C@@H](C)CO)S3(=O)=O)c1 | 5.6 | 9.5[16.7 µM]
COc1ccc(S(=O)(=O)Nc2ccc3c(c2)CC(=O)N([C@@H](C)CO)C[C@@H](C)[C@@H](CN(C)C(=O)Nc2cccc4ccccc24)O3)cc1 | -2.4 | 5.4[16.7 µM]
C[C@H](CO)N1C[C@H](C)[C@@H](CN(C)Cc2ccc(-c3ccccc3)cc2)Oc2ccc(NC(=O)c3ccncc3)cc2CC1=O | -3.2 | 7.1[16.7 µM]
CCCNC(=O)C[C@H]1CC[C@H]2[C@H](COc3ccc(NC(=O)C4CCOCC4)cc3C(=O)N2C)O1 | -5.1 | 22.2[16.7 µM]
C[C@@H]1CN([C@H](C)CO)C(=O)Cc2cc(NC(=O)Nc3cccc4ccccc34)ccc2O[C@H]1CN(C)S(=O)(=O)c1cn(C)cn1 | -8.2 | -0.2[16.7 µM]
CCNC(=O)C[C@@H]1CC[C@@H]2[C@H](COc3ccc(NC(=O)c4ccccc4Cl)cc3C(=O)N2C)O1 | 13.1 | -23.9[16.7 µM]
CC(C)NC(=O)N(C)C[C@H]1Oc2ccc(NC(=O)Nc3ccc4c(c3)OCO4)cc2CC(=O)N([C@@H](C)CO)C[C@H]1C | -1.6 | -28.2[16.7 µM]
COCC(=O)Nc1ccc2c(c1)C(=O)N(C)[C@H]1CC[C@@H](CC(=O)NCc3ccccc3F)O[C@H]1CO2 | 13.8 | -13.5[16.7 µM]
C[C@@H]1CN([C@@H](C)CO)C(=O)c2cccc(NC(=O)NC3CCCCC3)c2O[C@H]1CN(C)C(=O)NC1CCCCC1 | -0.6 | -9.5[16.7 µM]
C[C@H]1CCCCO[C@@H](CN(C)C(=O)C2CCCCC2)[C@@H](C)CN([C@@H](C)CO)C(=O)c2cc(NC(=O)Nc3ccccc3)ccc2O1 | 2.2 | 63.7*[16.7 µM]

From PubChem BioAssay
